High-throughput results as filed in PubChem BioAssay.
AF4-AF9 inh: MLL-AF4/AF9 protein interaction inhibition. P42568. inhibition, % at 10 µM. 0.47% of 350,000 active. AlphaScreen, biotin-AF4 peptide binding to FLAG-AF9;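 active means every replicate reaching a set inhibition limit, whatever the replicate mean, cut at about 25% in these data; inconclusive means mean inhibition reaches that limit but some replicates miss it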;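 further: 0% = plate neutral control median and 100% = total signal loss; the record names both 10 and 1 µM as test concentration; the first replicate is given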
Target sequence (P42568 whole entry, looked up): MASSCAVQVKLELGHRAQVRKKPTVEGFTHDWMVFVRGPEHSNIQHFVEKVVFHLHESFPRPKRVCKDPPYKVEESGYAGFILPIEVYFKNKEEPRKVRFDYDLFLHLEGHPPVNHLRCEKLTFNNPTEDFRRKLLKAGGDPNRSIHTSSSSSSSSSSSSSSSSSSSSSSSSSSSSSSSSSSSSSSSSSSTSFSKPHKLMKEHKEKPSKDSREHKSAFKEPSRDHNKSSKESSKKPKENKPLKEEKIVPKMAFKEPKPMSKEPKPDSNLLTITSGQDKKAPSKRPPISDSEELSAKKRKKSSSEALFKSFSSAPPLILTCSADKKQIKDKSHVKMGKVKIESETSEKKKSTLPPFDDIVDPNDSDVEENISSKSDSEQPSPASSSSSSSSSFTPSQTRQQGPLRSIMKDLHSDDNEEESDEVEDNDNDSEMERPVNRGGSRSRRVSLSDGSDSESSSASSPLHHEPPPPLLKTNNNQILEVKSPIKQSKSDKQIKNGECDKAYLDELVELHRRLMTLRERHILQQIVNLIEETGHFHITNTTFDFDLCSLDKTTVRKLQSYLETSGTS
A1 inh: inhibitors of the anti-apoptotic protein A1, read as caspase activation; MEF A1-2A-BIM cells, Caspase-Glo 3/7 luminescence, 3 h; percent of clofoctol response, vehicle zero; caspase activation, % (test concentration not listed); 0.066% of 330,000 active; AID 2462;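 active means over half of replicate activation scores above 10%, or exactly half above 10 with the replicate mean above 10; inconclusive means replicate mean below 10 yet half the replicates above 10; inactive means over half of replicates below 10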;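 further: wells of about 30 µL received 50 nL stock; many hits fall short of the cut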
Ecoli rRNA inh: inhibits bacterial ribosomal RNA function over humanized ribosomes. E. coli WT GFP vs humanized-ribosome RFP mutants, fluorescence, 24 h; hits give low values; DMSO median 0, no signal -100. GFP signal change (wild-type ribosome), % (no concentration beside the values). 1.6% of 350,000 active. AID 720706;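 active means significant combined selectivity score with lowered wild-type GFP, culture density cut under 30%, mutant RFP and density less affected; inactive means any of these conditions unmet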; further: one replicate is shown; some compounds called inactive have numbers as strong as hits
Calb FLC: C. albicans growth modulation with fluconazole; C. albicans CaCi-2 (fluconazole-resistant clinical isolate) + fluconazole, Alamar Blue growth, 48 h; growth inhibition, % (no concentration beside the values); 0.57% of 300,000 active; AID 1979;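 active means most replicates above 75%; inconclusive means exactly half above 75%; inactive means most below 75%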;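 further: all wells also contain fluconazole at 8 µg/ml as a sub-toxic cotreatment; 0% = median of DMSO wells and 100% = median of geldanamycin control wells; wells of about 8 µL received 7.5 nL stock; the first replicate is given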
RanGTP-Imp inh: disruptors of Ran-importin-beta complex formation – biochemical, FRET, CFP-Ran, YFP-importin-beta, homogeneous, primary screen. cell-free CFP-Ran/YFP-importin-beta FRET ratio. AID 2216. inhibition, % (test concentration not listed). 1.1% of 300,000 active;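 active means most replicates above 15%; inconclusive means exactly half above 15%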;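 further: 0% = DMSO wells and 100% = Ran loaded with GDP instead of GTP; wells of about 40 µL received 100 nL stock; the first replicate is given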
Vif A3G: inhibitors of Vif binding to APOBEC3G peptide, primary screen, biochemical, TR-FRET, GST-Vif 1-94, biotin-A3G peptide, dose response retest (AID 1117319) | 0.57% of 260,000 active | inhibition, %, or IC50 in µM where a hit was titrated | TR-FRET GST-Vif / biotin-A3G peptide binding; higher % means a stronger effect; test concentration not given here; strong numbers were not always called active;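 active means above the screen mean plus three standard deviations and confirmed in dose response; inconclusive means results disagree or hit not tested in dose response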;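 further: Vif residues 1-94 fused to GST binding biotinylated APOBEC3G peptide 110-148; 0% = full assay without inhibitor and 100% = GST in place of GST-Vif; retest series ran down from 100 µM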
T cruzi repl: blocks replication of Trypanosoma cruzi; T. cruzi beta-gal in NIH3T3, luminescence, 90 h; inhibition, % (test concentration not listed); 1.4% of 300,000 active; AID 1885;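 active means mean inhibition across valid replicates above about 55%, limit read from the data; inconclusive means mean below that limit but half or more replicates reach it; inactive means mean below it, under half of replicates reach it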;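 further: signal also drops with host cell toxicity which is not excluded here; 0% = plate median of DMSO wells and 100% = zero luminescence signal; higher percent means less beta-gal luminescence so fewer parasites; stock transfer was 50 nL into about 50 µL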
Beta cell apopt: beta cell apoptosis inhibition. INS-1E cytokine-induced death, ATP luminescence, 48 h; percent of positive-control rescue, neutral wells zero. protection from apoptosis, % (concentration not given with the values). AID 435005. 0.8% of 300,000 active;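 active means all replicates at 75% or more, or half of them and the mean; inconclusive means half reach 75% but not the mean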;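 further: 0% = cytokine-treated negative control wells and 100% = positive control rescue; higher means more ATP so stronger rescue from cytokine killing; wells of about 40 µL received 100 nL stock; the first replicate is given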
Ecoli rRNA inh OD600: recorded beside Ecoli rRNA inh, whose call it bears; OD600 change, %; measured here: OD600 growth;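 optical density of the mix in the first replicate; 0 = DMSO median and -100 = no signal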
Ecoli rRNA inh RFP: further read-out of Ecoli rRNA inh, marked with its call; RFP signal change, %; measured here: RFP humanized mutant strains;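 first replicate; 0 = DMSO median and -100 = no signal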
An asterisk follows results filed as active; ? = inconclusive; nt = no result given. Some of the compounds tested. The share of hits here may be higher or lower than overall.

No. | compound | AF4-AF9 inh | A1 inh | Ecoli rRNA inh | Ecoli rRNA inh OD600 | Ecoli rRNA inh RFP | Calb FLC | RanGTP-Imp inh | Vif A3G | T cruzi repl | Beta cell apopt
1 | CCOC(=O)c1c(C)[nH]c(C)c1S(=O)(=O)NC(C)Cc1ccco1 (stereo unspecified) | 1.6 | 2.7 | 2 | 4 | 1.0 | 4 | 2.7 | nt | -8 | 0
2 | COc1ccc(NS(=O)(=O)c2c(C)[nH]c(C)c2C(=O)N2CCCCC2)cc1Cl | 5.0 | 0.5 | -1 | -17 | -0.3 | -12 | 1.9 | -1% | 3 | nt
3 | O=S(=O)(NCc1ccccc1)c1ccc(Cl)cc1 | nt | 0.6 | nt | nt | nt | -5 | 1.1 | 14% | 3 | -1
4 | COc1cccc(C2C(C#N)=C(N)OC3=C2C(=O)CCC3)c1OC(=O)c1ccco1 (stereo unspecified) | nt | -0.5 | nt | nt | nt | -10 | -3.6 | 22% | nt | -11
5 | N#CC1=C(N)Nc2ncnn2C1c1ccc([N+](=O)[O-])cc1 (stereo unspecified) | 1.1 | 0.6 | -1 | 0 | -0.5 | -3 | 0.7 | 9% | -8 | 7
6 | Cc1ccc(-c2cn(C[C@H]3CC[C@@H]([C@@H]4CC[C@H](Cn5cc(-c6ccc(C)cc6)nn5)O4)O3)nn2)cc1 | -1.6 | 0.0 | 13 | 12 | 3.3 | -7 | 1.3 | nt | -16 | 11
7 | Cc1cc(C(=O)NC2CCCCC2C)c2ccccc2n1 (stereo unspecified) | 0.2 | 0.9 | 0 | 3 | -1.6 | -4 | 4.6 | nt | 1 | 35
8 | CCCC(=O)Nc1cc2c3c(c1)CC(=O)N3CCC2 | -4.6 | 0.5 | 9 | 1 | -2.6 | 13 | -2.9 | nt | -4 | -3
9 | O=C(c1ccccc1)n1ccc2ccccc21 | nt | 0.4 | nt | nt | nt | -6 | -1.9 | 0% | -8 | -4
10 | Cc1cc(C)n2nc(SCc3cc(=O)oc4cc(C)c(C)cc34)nc2n1 | nt | -0.5 | nt | nt | nt | 2 | -2.8 | -12% | 3 | -11
11 | COc1ccc(N2C(N)=NC(N)=NC23CCCC3)cc1 | nt | 0.9 | nt | nt | nt | -3 | 2.9 | 12% | 3 | 11
12 | O=C(Cn1c(=O)sc2ccccc21)NCc1ccco1 | nt | 1.2 | nt | nt | nt | 4 | 0.6 | 0% | -26 | 3
13 | O=C(Cn1nnc(-c2cc(C(F)(F)F)cc(C(F)(F)F)c2)n1)NNC(=S)Nc1ccc(Cl)cc1 | 1.3 | 0.3 | -1 | 4 | -4.6 | -3 | 0.5 | nt | 13 | 3
14 | O=C(c1nc2ccccn2c1CN1CCN(c2ccccc2O)CC1)N1CCCC1 | 1.3 | 1.3 | 9 | 13 | -1.0 | 1 | -1.2 | -6% | 12 | 0
15 | Cc1ccc(C(=O)OCC(=O)N2CCc3ccccc32)cc1 | nt | -5.9 | nt | nt | nt | -1 | 1.3 | -4% | 2 | -10
16 | CCN1C(=O)c2cccc3c(NC(=O)C(C)(C)C)ccc1c23 | nt | 0.0 | nt | nt | nt | 8 | -6.2 | -1% | -8 | nt
17 | O=C(c1ccco1)N1N=C(c2ccncc2)CC1(O)C(F)(F)F (stereo unspecified) | -0.9 | 0.2 | 12 | 6 | 2.6 | 2 | 1.0 | 5% | -13 | 2
18 | CCCCOc1ccc(N2C(=O)CC(N(O)c3ccccc3)C2=O)cc1 (stereo unspecified) | nt | 0.1 | nt | nt | nt | -8 | -0.6 | 0% | -11 | -10
19 | Nc1nc(N2CCN(c3ccccc3)CC2)n[nH]1 | 4.3 | -0.1 | 4 | 5 | -0.4 | -22 | -2.9 | 1% | 8 | 0
20 | NC(=O)CC[C@H](NC(=O)c1ccc(F)cc1)C(=O)N1CCN(Cc2ccc3c(c2)OCO3)CC1 | -8.7 | -0.3 | 13 | 9 | 5.7 | nt | nt | -5% | nt | -10
21 | CC(CC(=O)O)CC(=O)Nc1cccc([N+](=O)[O-])c1 (stereo unspecified) | -1.9 | 0.0 | 15 | 8 | 0.1 | ? | 6.7 | nt | -6 | -18
22 | Cc1ccc(Nc2c(-c3cccnc3)nc3ccc(Br)cn23)cc1 | 6.1 | -0.6 | 4 | 1 | -3.0 | 4 | 0.4 | -5% | 50 | -3
23 | OCCNCCOCCOc1ccccc1-c1ccccc1 | nt | 1.8 | nt | nt | nt | -2 | 2.2 | nt | 1 | -5
24 | CC(Oc1ccc(Cl)cc1Cl)C(=O)Nc1cccnc1 (stereo unspecified) | nt | 0.6 | nt | nt | nt | -9 | 3.2 | 14% | 3 | -9
25 | CCc1c(C)nc2nc(SCc3ccccc3)[nH]n2c1=O | -5.3 | -1.7 | -2 | -5 | 0.4 | 12 | -3.6 | -2% | -2 | -8
26 | CCOC(=O)/C(C#N)=C/c1cccc([N+](=O)[O-])c1 | 1.2 | -1.3 | 10 | 6 | -1.5 | 1 | 2.9 | -8% | 13 | 0
27 | COc1ccc([C@@H]2C[C@H]3CN(Cc4ccccc4OC)C(=O)[C@]34CCCN24)cc1C | 1.7 | 0.6 | 7 | 0 | 2.4 | -12 | ? | 4% | 29 | -7
28 | CCCCCc1ccc(-c2cn(CCCOCc3ccccc3)nn2)cc1 | -3.2 | 0.1 | -2 | 6 | 0.9 | 5 | -1.5 | nt | 18 | 3
29 | CSc1ncc(CN2CCN(CCC(C)C)C(CCO)C2)cn1 (stereo unspecified) | -2.6 | 0.8 | 9 | 0 | 1.4 | -8 | 1.5 | nt | 9 | 3
30 | COC(=O)C1=C(O)/C(=C\c2ccc(CNS(=O)(=O)c3ccc(Cl)cc3)o2)N=C1C | 3.4 | 1.6 | 12 | 7 | 9.6 | 15 | 7.4 | nt | -9 | -4
31 | COC(=O)c1ccc(OCc2nn[nH]n2)cc1 | 0.7 | 2.0 | 5 | 12 | -0.6 | -1 | -1.7 | nt | -10 | -4
32 | CC(C)[C@H]1COCCS(=O)(=O)N1Cc1ccccc1F | nt | -0.9 | 11 | 6 | 1.3 | 5 | -0.7 | nt | -3 | 0
33 | CCOc1ccc(N(CC(=O)Nc2cc(OC)cc(OC)c2)S(=O)(=O)c2c(C)[nH]c(=O)[nH]c2=O)cc1 | 2.9 | 0.1 | 5 | 1 | 1.6 | 13 | 0.3 | -4% | -18 | -2
34 | COc1cccc(N2CCN(Cc3ccco3)CC2)c1 | 5.5 | 0.2 | 21 | 14 | 1.5 | 0 | 6.1 | nt | -10 | -1
35 | COc1ccc(-n2ncc3c(=O)n(CC(C)=O)cnc32)cc1 | -10 | 0.0 | 7 | 2 | 2.0 | -1 | -1.3 | nt | -13 | -1
36 | CCOC(=O)c1cc(-c2ccc(OC)cc2)n[nH]1 | -2.0 | -1.3 | -25* | 4.5* | 8.1* | -7 | -0.5 | -4% | 7 | 2
37 | FC(F)Oc1ccc(C2N=C(c3ccccc3)NO2)cc1 (stereo unspecified) | 1.1 | -1.0 | 1 | 9 | -0.7 | -6 | 1.3 | -4% | -13 | -2
38 | COC(=O)c1ccc(NS(=O)(=O)c2cc3c4c(c2)CCC(=O)N4CCC3)cc1 | -2.7 | -0.3 | 1 | -3 | 2.0 | -3 | -0.6 | 3% | 1 | -1
39 | O=C(NCCCn1ccnc1)c1cc(S(=O)(=O)N2CCOCC2)ccc1F | -2.5 | -0.9 | 15 | 17 | -0.1 | 62 | 0.7 | 4% | -4 | 3
40 | CCOc1cc(C(=O)N2CCC(CC3CC(c4cccc(Br)c4)=NO3)(C(=O)NCC3CCCCC3)CC2)cc(OCC)c1OCC (stereo unspecified) | -4.5 | 0.1 | 4 | 10 | 16 | 23 | 2.9 | nt | 41 | nt
41 | CC(C)(C)c1cc(=O)[nH]c(SCc2ccccc2)n1 | -0.4 | 0.1 | -18 | -21 | -8.0 | -14 | nt | 2% | 1 | -2
42 | CC(=O)c1cccc(CN2CCN(C3CCCC3)C(CCO)C2)c1 (stereo unspecified) | -2.4 | 0.3 | 19 | 6 | -2.4 | -3 | 5.1 | nt | 14 | -4
43 | CCC(C)NC(=O)C1CCC(CNS(=O)(=O)c2ccc3c(c2)N(C(C)=O)CCO3)CC1 (stereo unspecified) | 2.6 | -0.5 | 0 | 4 | -0.9 | -1 | -1.1 | nt | 28 | -7
44 | COc1cc(-c2ncc3ccccn23)cc(OC)c1OC | nt | -0.7 | nt | nt | nt | 8 | ? | 19% | 0 | -1
45 | CC12CN(C(=O)c3ccccc3Br)CC(C)(CN(C(=O)c3ccccc3Br)C1)C2=O | -0.2 | 0.3 | 2 | 0 | -0.3 | -4 | 3.2 | 0% | 3 | 3
46 | COc1ccc(CC2(CO)CCN(C(=O)NCc3ccccc3)CC2)cc1 | -0.8 | -0.5 | -4 | -6 | 0.9 | 49 | 7.5 | nt | -19 | 5
47 | COc1ccc(Nc2nc(Cl)nc(Nc3ccc(OC)cc3OC)n2)c(OC)c1 | 1.8 | -0.6 | 24 | 21 | 1.2 | -1 | -0.1 | -10% | 18 | 3
48 | Cc1ccccc1OCC(=O)N(Cc1nnc(-c2ccc(Cl)cc2)o1)C(C)C | 3.9 | -1.3 | -16 | -57 | 0.9 | nt | nt | 6% | nt | -4
49 | C=CCc1c(OC(C)=O)c2ccccc2n(C)c1=O | 3.4 | -0.2 | -2 | 7 | -4.6 | 21 | 0.5 | -6% | 7 | 4
50 | COc1ccc(NC(=O)CSc2nc3c(sc4ccccc43)c(=O)n2CCCN2CCCC2)cc1 | nt | -0.7 | nt | nt | nt | -22 | 0.0 | nt | 31 | -3
51 | CCNC(=S)N1CCN(CCN=CC2=C(O)CC(c3cccs3)CC2=O)CC1 (stereo unspecified) | nt | 0.3 | nt | nt | nt | 1 | -5.3 | -4% | -2 | -6
52 | Cc1sc(NC(=O)c2ccco2)c(CN2CCN(Cc3ccccc3)CC2)c1C | 19 | 0.2 | -49 | -72 | -8.2 | 1 | 2.6 | nt | 59* | -5

Quoted at random: three compounds from above
No. | compound | AF4-AF9 inh | A1 inh | Ecoli rRNA inh | Ecoli rRNA inh OD600 | Ecoli rRNA inh RFP | Calb FLC | RanGTP-Imp inh | Vif A3G | T cruzi repl | Beta cell apopt
51 | CCNC(=S)N1CCN(CCN=CC2=C(O)CC(c3cccs3)CC2=O)CC1 (stereo unspecified) | nt | 0.3 | nt | nt | nt | 1 | -5.3 | -4% | -2 | -6
52 | Cc1sc(NC(=O)c2ccco2)c(CN2CCN(Cc3ccccc3)CC2)c1C | 19 | 0.2 | -49 | -72 | -8.2 | 1 | 2.6 | nt | 59* | -5
30 | COC(=O)C1=C(O)/C(=C\c2ccc(CNS(=O)(=O)c3ccc(Cl)cc3)o2)N=C1C | 3.4 | 1.6 | 12 | 7 | 9.6 | 15 | 7.4 | nt | -9 | -4
